# PV pol inh: poliovirus RNA polymerase inhibition. P03300. poliovirus polymerase elongation, fluorescence polarization; active compounds read low. % elongation, % (compound at 16.7 µg/mL). 0.66% of 150,000 active; in the data active means % elongation below about 90%; further: some results filed as inactive read as strong as hits
# Target sequence (P03300 1749-2209 limits assumed): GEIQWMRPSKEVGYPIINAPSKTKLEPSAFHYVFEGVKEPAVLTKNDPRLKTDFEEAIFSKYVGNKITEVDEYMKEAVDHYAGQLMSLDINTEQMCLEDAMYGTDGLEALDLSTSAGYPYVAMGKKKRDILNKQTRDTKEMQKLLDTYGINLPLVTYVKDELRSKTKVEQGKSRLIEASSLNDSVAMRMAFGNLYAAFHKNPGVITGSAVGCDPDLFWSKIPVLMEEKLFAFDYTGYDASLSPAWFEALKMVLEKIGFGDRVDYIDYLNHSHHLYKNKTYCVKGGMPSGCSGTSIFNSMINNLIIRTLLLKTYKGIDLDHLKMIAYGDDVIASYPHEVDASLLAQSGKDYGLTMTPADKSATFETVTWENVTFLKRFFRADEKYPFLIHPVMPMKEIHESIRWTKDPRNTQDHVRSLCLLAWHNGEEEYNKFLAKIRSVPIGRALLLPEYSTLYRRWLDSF
# Mtb MbtI inh: inhibitors of Mycobacterium tuberculosis siderophore enzyme MbtI; P9WFX0; purified MbtI enzyme, fluorescence intensity read-out; inhibition, %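 (about 17 µg/mL by stock and volumes)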; 0.89% of 100,000 active;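 active means above 50% in both replicates, above 80% if mildly self-fluorescent; inactive means the rest, strongly fluorescent compounds included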;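 further: 0% = mean of negative and 100% = mean of positive controls; one replicate is shown; some compounds called inactive have numbers as strong as hits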
# Mtb MenB inh: blocks the Mycobacterium tuberculosis MenB enzyme; P9WNP5; MenB enzyme assay, absorbance read-out; some hits fall short of the stated cut; inhibition, %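 (about 12 µg/mL by stock and volumes)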; 0.43% of 100,000 active;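 active means mean of two replicates above 30%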;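 further: 0% = no compound and 100% = wells with inactive enzyme; the first replicate is given; strong numbers were not always called active; inactives centre near -10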
# Target sequence (P9WNP5 whole entry, looked up): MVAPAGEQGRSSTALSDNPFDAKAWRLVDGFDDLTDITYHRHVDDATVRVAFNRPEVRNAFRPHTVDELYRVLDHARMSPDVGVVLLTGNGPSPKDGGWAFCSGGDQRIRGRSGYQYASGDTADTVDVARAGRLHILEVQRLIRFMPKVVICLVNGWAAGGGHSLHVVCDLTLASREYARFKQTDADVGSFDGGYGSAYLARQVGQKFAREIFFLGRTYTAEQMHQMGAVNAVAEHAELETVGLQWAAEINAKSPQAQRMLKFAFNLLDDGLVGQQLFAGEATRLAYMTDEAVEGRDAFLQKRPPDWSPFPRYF
# PV pol inh intensity: recorded beside PV pol inh, whose call it bears; % elongation; measured here: total intensity read-out; formula for this scale not given here;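 total fluorescence in place of polarization; lower means less elongation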
# The depositor's hits bear a star; i = inactive; . = no result given; & = joins results of further samples.
SMILES,PV pol inh,PV pol inh intensity,Mtb MbtI inh,Mtb MenB inh
Cc1ccn(-c2ccc(NC(=O)C3CC3)cc2)n1,104,106,1,2
COc1cc2c(cc1OC)C1=C(C#N)CC/C(=N\S(=O)(=O)c3ccccc3)N1CC2,103,105,2,12
O=C(/C=C/c1ccc2c(c1)OCO2)N1CCN(c2n[nH]c(=O)[nH]c2=O)CC1,95,101,-9,-5
COC(=O)CNC(=O)c1ccc(OC)cc1,104,104,6,5
CCN1C(=Nc2ccc(O)cc2)SC/C1=C\C(=O)OC,102,104,23,8
C=CCNC(=S)Nc1sc2c(c1C(=O)OCC)CCCCC2,100,103,-3,-71
Cc1ccc(-c2csc(COC(=O)C(C)(C)C)n2)cc1,108,97,-2,-9
Cc1nn(-c2ccc(Cl)cc2)c2sc(C(=O)OCC(=O)N3CCNC3=O)cc12,105,104,24,-33
CN(Cc1ccco1)C(=O)/C=C/c1cn(Cc2ccccc2)nc1-c1ccccc1,103,105,12,-53
O=C(CCNC(=O)c1ccco1)NC1CCCCCC1,104,105,-12,-27
COCCn1c(=S)[nH]c2ccccc2c1=O,100&103,102&103,9&17,-26&-9
COc1ccccc1OC(=O)c1ccc(SC)cc1OC,101,106,-11,-33
Cc1ccc(-c2n[nH]c(=S)c3ccccc23)cc1S(=O)(=O)N1CCN(C)CC1,104,103,6,-17
O=C(c1ccccc1)c1ccc2nc(N3CCCC3)c3nncn3c2c1,103,102,-3,-7
CC(Oc1ccccc1)C(=O)NC1CCSC1=O (configuration not stated),103,107,1,-10
CC1CN(c2ccccc2)C(=O)CS1 (configuration not stated),100,99,3,-9
O=C(O)c1ccccc1S(=O)(=O)CC(=O)N1CCCCC1,104,102,-4,4
O=C(Nc1ccc(Cl)cc1)C(=S)N1CCOCC1,100,101,32,-4
O=C(COC(=O)C1(c2ccc(Cl)cc2)CCCC1)NC1CC1,100,96,0,.
c1ccc(CCNc2nsc3ccccc23)cc1,102,91,102,-41
O=C(Nc1ccc(F)cc1F)NN1CCOCC1,101,102,1,-3
CCc1cc2c(=O)c(-c3nc(C)cs3)c(C(=O)O)oc2cc1O,103,102,1,-28
Cc1cccc(N2C(=O)NC3CC2(C)Oc2ccccc23)c1 (configuration not stated),101,106,0,-30
C=CCn1c(C(CC)CC(C)(C)O)n[nH]c1=S (configuration not stated),104&102,108&104,1&7,-9&-22
Cc1nn(CCCC(=O)N2CCCCC2)c(=O)c2c1sc1ccccc12,103,105,-159,1
COC(=O)C(C)Sc1nnc(-c2ccc(Br)cc2)o1 (configuration not stated),105,109,-1,-15
CN(CC(N)=O)S(=O)(=O)c1ccc2ccccc2c1,101,101,6,-19
CCOc1ccc(N(C)C(=O)CCc2nnc3ccc(N4CCCC4)nn23)cc1,101,102,-4,0
Cc1cc(C)nc(NNC(=S)Nc2ccccc2C)n1,103,107,13,1
CN(C(=O)CCN1C(=O)C(C)(C)Nc2ccccc21)c1ccccc1,106,109,.,-19
CCOc1cc2c(cc1OCC)C1C(C(=O)N3CCCC3)c3ccccc3C(=O)N1CC2 (configuration not stated),101,104,-1,-30
C=CCNC(=O)c1ccc(C(F)(F)F)nc1C,107,104,-7,-9
Cc1ccc(S(=O)(=O)N2CCOCC2)cc1,102,102,-2,-7
COc1ccc(Br)cc1-c1nc(COC(=O)c2ccc(C)o2)cs1,100,104,-6,-10
CC1=C(C#N)C(c2ccc(O)cc2)C2=C(CCCC2=O)N1 (configuration not stated),103,104,104,-93
O=C(COc1ccc2ccc(=O)oc2c1)NC1CCCC1,101,100,85,.
O=C1c2ccccc2C(=O)N1CCSc1nnc(Cc2cccs2)n1CCc1ccccc1,103,107,0,-4
O=C(Nc1cnn(Cc2ccc(F)cc2)c1)c1cc(-c2ccc(Br)cc2)on1,101,103,-6,1
Cc1cc(NC(=O)CCC(=O)N(c2ccc(F)cc2)C2(C(=O)NC3CCCCC3)CCCC2)no1,102,103,-6,-1
C/C(=N/N=C1/NC(=O)CC(C(=O)O)S1)c1ccccc1 (configuration not stated),101,103,20,-8
CC(C)n1c(SCC(=O)C(C)(C)C)nc2cc(C(F)(F)F)ccc21,106,102,-5,-10
CCCCn1nnnc1CSc1nc2cc(Cl)ccc2n1Cc1ccccc1,101,95,4,11
CC(=O)n1c(/C=C2\C=c3cccc(C)c3=NC2=O)c(O)[nH]c1=S,99,110,-8,-5
CC1CC(C)CN(C(=O)C(C)n2sc3ccccc3c2=O)C1 (configuration not stated),106,100,-8,-8
CC(C)(CNC(=O)c1cc(Cl)c(O)c(Cl)c1)N1CCOCC1,102,107,-1,-24
Cc1ccc2c(CC(=O)N3CCSC3=Nc3ccccc3C)coc2c1,105,107,4,-9
Cc1cc(=O)n(CNC(=O)c2ccco2)cn1,104,110,.,3
COc1ccc(/C=N/NC(=O)c2ccccc2)cc1OC,99,100,21,-13
CCN(CC(=O)NCc1cccs1)C(=O)c1ccc(S(=O)(=O)N2CCOCC2)cc1,101,94,-9,-26
COc1cc(S(=O)(=O)n2cnc3cc(C)c(C)cc32)ccc1Cl,104,106,2,-28
CCCCCCC1CC=C(C(=O)O)CC1 (configuration not stated),100,100,-16,-38
COc1ccccc1C(=O)Nc1cc(C)c(OCC(=O)N2CCOCC2)c(C)c1,100,103,1,-21
Cc1noc(N)c1C(=O)OCc1ccc(COC(=O)c2c(C)noc2N)cc1,117,123,3,-14
O=C(COC(=O)c1cccnc1Cl)NCc1ccc(Cl)cc1,102,108,-8,.
CCC1C(=O)C2=C(CC(C)(C)CC2=O)N(c2ccc(OC)cc2)C1c1ccccc1 (configuration not stated),104,111,.,-17
O=C(Nc1c2c(nn1-c1ccccc1)CS(=O)C2)c1ccccc1 (configuration not stated),101,99,2,7
CCn1c(C(=O)NCCCc2ccccc2)cc2oc3ccccc3c21,103,98,.,-23
CC(C)N1CCc2c(sc(N)c2C(N)=O)C1,69,193,i,-140
COc1ccc(/C=C/C(=O)Nc2ccc(Cl)cn2)cc1OC,101,105,47,.
Cc1csc2c(N3CCN(C(=O)NC(C)(C)C)CC3)ncnc12,105,107,-5,-7
# The listing continues.
SMILES,PV pol inh,PV pol inh intensity,Mtb MbtI inh,Mtb MenB inh
O=c1[nH]c2ccccc2c2cn(-c3ccccc3)nc12,99,103,33,5
COc1ccc(CCN2C(=O)CC(N3CCN(C)CC3)C2=O)cc1OC (configuration not stated),103,104,0,-22
c1ccc2c(c1)n1cnnc1c1nncn21,100,107,-3,11
CO/N=C/C1=C(Sc2nc3ccccc3s2)CCCC1,102,107,0,-9
CC(Sc1nc2c(n1-c1ccccc1)CCCC2)C(=O)Nc1ccc(S(N)(=O)=O)cc1 (configuration not stated),102,107,10,-18
CCCc1[nH][nH]c(=O)c1C(c1ccc(Cl)cc1)C(C#N)C#N (configuration not stated),101,100,9,18
Cc1nc(SCC(=O)c2cn(CCC#N)c3ccccc23)n(C2CCCCC2)c1C,105,109,7,-21
C[C@H](CCC(=O)NCC(=O)O)[C@H]1CC[C@H]2[C@@H]3[C@H](O)C[C@@H]4C[C@H](O)CC[C@]4(C)[C@H]3C[C@H](O)[C@]12C,99,99,-4,-1
COc1cc(-c2nc(Nc3ccc(C)c(F)c3)c3ccccc3n2)cc(OC)c1OC,103,106,21,-19
Cc1cccnc1NC(=O)c1ccc(S(=O)(=O)N2CCCCC2)cc1,106,105,0,-6
CCOC(=O)C(C)C1(O)c2ccccc2-c2ncccc21 (configuration not stated),103,102,15,-47
COc1ccc(C2CC(c3ccccc3)n3ncnc3N2C(C)=O)cc1 (configuration not stated),100,101,-3,-14
CC(NC(=O)Cc1ccsc1)c1ccc(S(N)(=O)=O)cc1 (configuration not stated),101,102,-16,-2
Cc1cc(C(=O)COC(=O)c2ccc(=O)n(Cc3ccccc3)n2)c(C)n1C1CC1,100,99,-1,-11
COC(=O)/C(C#N)=C/c1cccc(Br)c1,101,93,-2,-18
CCOC(=O)c1nc(N2CCc3ccccc32)c2ccccc2n1,101,104,1,-41
C(=NCc1ccc2c(c1)OCO2)c1cccnc1,108,112,.,-8
O=C(OCC1CCCO1)c1ccccc1C(F)(F)F (configuration not stated),103,105,-2,.
CN1CCOc2cc(S(=O)(=O)NC3CCCCNC3=O)ccc21 (configuration not stated),101,96,22,17
CC(C)(C)C(=O)COC(=O)c1ccc2c(=O)n3c(nc2c1)CCCCC3,103,106,-2,-23
O=C(O)CCC(=O)Nc1ccccn1,98,106,.,-13
COc1ccc(N=C2SCC(C(C)(C)C)=NN2C)cc1,100,102,11,-20
COC(=O)c1ccc(CSc2ccc(S(=O)(=O)N3CCCC3)cn2)o1,106,110,21,-3
CN(Cc1ccccc1)C(=O)C1CCCN1S(=O)(=O)c1ccc2c(c1)CCCC(=O)N2 (configuration not stated),100,101,-20,-23
O=C(CCN1C(=O)COc2ccccc21)NCCCN1CCN(c2ccc(F)cc2)CC1,105,104,-10,-38
O=C(COCc1cc(-c2ccco2)on1)NCCc1ccccc1,101,103,-6,-22
CCCCC(=O)C1CCC(c2ccc(Cl)cc2)CC1 (configuration not stated),107,113,.,-28
CC(=O)N1CCC(C(=O)O/N=C(\N)c2ccc(Cl)cc2)CC1,100,99,-9,-2
COc1ccc(CNC(=O)CCn2c(=S)[nH]c3cc4c(cc3c2=O)OCO4)cc1,98,102,-6,9
Cc1c(C#N)c(O)n(CCCO)c(=O)c1N=Nc1c(C)n(C)n(-c2ccccc2)c1=O,129,149,0,-32
CC(=O)Oc1ccc(-c2nc3ccccc3c(=O)o2)cc1,102,95,.,-8
CC1SCC(=O)N(CC(=O)NC2CCCCC2)C1=O (configuration not stated),98,105,-4,-2
COc1ccc(-c2nc(SCc3ccccc3C#N)[nH]c(=O)c2C#N)cc1,104,109,.,-5
COc1ccc(NS(=O)(=O)c2cccc3nsnc23)c(OC)c1,98,104,-2,-1
COc1cc(/C=C/C(=O)OCc2c(C)noc2C)cc(S(=O)(=O)N2CCc3ccccc32)c1OC,102,99,-16,-26
CC(C)c1cc(C(=O)N2CC3(C)CC2CC(C)(C)C3)no1 (configuration not stated),100,104,7,-28
COC(=O)c1c(=O)n(O)c2cc(Cl)c(Cl)cc2[n+]1[O-],69,194,6,-77
Cc1nn(CC(=O)NC2CCCC2)c(=O)c2cccn12,101,102,-16,13
O=C(COC(=O)c1c2c(nc3ccccc13)CCCC2)NCc1ccco1,106,103,23,-33
O=C(CCS(=O)(=O)Cc1ccccc1)N1CCN(C(=O)c2ccco2)CC1,102,102,-11,-5
O=c1cccc2n1CC1CC2CN(c2nc(N3CCCCC3)nc(N3CCCCC3)n2)C1 (configuration not stated),99,100,5,0
Cc1cc(C)nc(NC2=NCCN2C(=O)Nc2ccc(Cl)c(Cl)c2)n1,103,103,24,-10
CC1Oc2ccccc2N(CC(=O)NC2CCCC2)C1=O (configuration not stated),101,101,-2,-18
CN(Cc1ccccc1)C(=O)c1cccn2c(=O)c3c4c(sc3nc12)CCCC4,100,98,2,-28
Cc1ccc(S(=O)(=O)N2c3cccc4cccc(c34)S2(=O)=O)cc1C,102,106,-10,-21
CC(=O)N1N=C(c2ccco2)OC1c1ccc(-c2ccccc2)cc1 (configuration not stated),104,98,-9,-17
O=C(OCn1nnc2ccccc2c1=O)C1CC(=O)N(Cc2ccco2)C1 (configuration not stated),100,95,36,-13
N=c1n(CCO)c2ccccc2n1CCOc1ccc(Cl)cc1Cl,100,94,-13,-28
Cc1cc2c(C)nc3ccc(C(=O)O)cc3c2o1,105,104,29,-46
O=S(CCSc1nc2ccccc2s1)Cc1ccccc1 (configuration not stated),98,105,2,-34
Fc1ccc(NC(=S)N2CCCCC2CCN2CCOCC2)cc1 (configuration not stated),107,111,2,-4
O=C(Oc1cccc(-c2cnc3ccccc3n2)c1)c1ccco1,115,119,-6,-18
O=S(=O)(c1cccc(C(F)(F)F)c1)N(CCCN1CCOCC1)Cc1cccs1,102,98,-2,7
